# Compound activity from PubChem BioAssay.
# Cruzain inh noDet: blocks cruzain activity in detergent-free assay. P25779. purified cruzain, Z-FR-AMC fluorescence, no detergent. Potency, µM, inactives show max response, negative = inhibition, hits mostly inhibitors. 200,000 tested, 2.3% active. AID 1476; active = well fitted curve in the direction sought with a large enough effect; inconclusive = small, poorly fitted or top-dose-only effect, or another doubt; inactive = no such curve, though single readings can be large; an effect the other way counts as inactive or inconclusive;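 note: plate controls were enzyme without inhibitor for no effect and buffer without enzyme for full effect; nearly all actives have a fitted effect of over 40% in size; top concentration of the series not given in the record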
# Target sequence (P25779 123-467 limits assumed): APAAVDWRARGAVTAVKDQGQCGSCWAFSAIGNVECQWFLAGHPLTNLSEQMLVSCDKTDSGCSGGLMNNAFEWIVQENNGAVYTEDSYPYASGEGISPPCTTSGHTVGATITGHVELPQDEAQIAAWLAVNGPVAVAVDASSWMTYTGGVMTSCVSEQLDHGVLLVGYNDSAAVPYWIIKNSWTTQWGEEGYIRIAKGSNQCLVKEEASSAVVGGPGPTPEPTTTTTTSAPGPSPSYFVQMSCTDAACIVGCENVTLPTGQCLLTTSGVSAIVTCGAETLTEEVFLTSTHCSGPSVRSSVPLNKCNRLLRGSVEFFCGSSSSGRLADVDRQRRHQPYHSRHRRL
#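 Detergent-free condition (0.00005% Triton X-100) in acetate buffer pH 5.5 with DTT. 1.5 nM enzyme and compound were pre-mixed 15 min, then 2 uM Z-FR-AMC substrate added; reaction progress from fluorescence change between first and third reads (60 s).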
# 2A StopGo: lowers the luciferase signal of an FMDV 2A StopGo reporter | human cells with a luciferase reporter of 2A StopGo recoding; control for the full effect not named in the record | Potency, µM (highest dose often 57.9 µM), for inactives: at the highest dose signal change, negative = less light | 410,000 tested, 1.2% active | AID 1159524; active = well fitted falling curve with a large enough effect; inconclusive = small, poorly fitted or top-dose-only effect; inactive = no such curve, though single readings can be large or run the other way; tested in HEK293T cells; note: % is set by controls: 0 for no effect and ±100 for the full control effect; nearly all actives have a fitted effect of over 45% in size; luciferase light after 4 h
# RE007 growth inh: less growth of the S. pombe RE007 Vpr strain | S. pombe RE007 Vpr strain, BacTiter-Glo ATP luminescence, 24 h; control for the full effect not named in the record | Potency, µM (highest dose often 92.2 µM), without a hit: at the highest dose activity change, negative = less growth | 360,000 tested, 0.21% active; active = well fitted falling curve with a large enough effect; inconclusive = small, poorly fitted or top-dose-only effect; inactive = no such curve, though single readings can be large or run the other way;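 note: % is set by controls: 0 for no effect and ±100 for the full control effect; nearly all actives have a fitted effect of over 50% in size; the assay follows cell death caused by Vpr and the record does not say whether a fall means rescue or toxicity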
#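 Fission yeast strain RE007, carrying one chromosomally integrated HIV-1 vpr copy, was seeded at OD 0.01 in PMG+AL medium with 23 nL pinned compound. After 24 h at 30 °C and 99% humidity, viability was read by BacTiter-Glo luminescence.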
# LASV entry inh: Lassa virus entry inhibition; Lassa virus pseudotype entry inhibition, cell reporter; control for the full effect not named in the record; 300,000 tested, 1.2% active; Potency, µM (highest dose often 37.9 µM), inactives show at the top dose activity change, negative = inhibition, usual class: inhibitors; active means well fitted inhibition curve with a large enough effect; inconclusive means small, poorly fitted or top-dose-only effect, or effect the other way; inactive means flat fitted curve, though single readings scatter; tested in HEK293 cells; note: % is set by controls: 0 for no effect and ±100 for the full control effect; nearly all actives have a fitted effect of over 50% in size; luciferase read-out
# Cruzain inh Det: blocks cruzain activity in presence of Triton detergent; P25779; purified cruzain, Z-FR-AMC fluorescence, 0.01% Triton; Potency, µM, for inactives: max response, negative = inhibition, most hits filed as inhibitors; 200,000 tested, 0.43% active; active = well fitted curve in the direction sought with a large enough effect; inconclusive = small, poorly fitted or top-dose-only effect, or another doubt; inactive = no such curve, though single readings can be large; an effect the other way counts as inactive or inconclusive;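 note: plate controls were neutral wells for no effect and buffer without enzyme for full effect; nearly all actives have a fitted effect of over 40% in size; top concentration of the series not given in the record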
#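 Cruzain (1.5 nM) preincubated 15 min at RT with compound in 100 mM sodium acetate pH 5.5, 5 mM DTT, 0.01% Triton X-100. Reaction started with 2 uM Z-FR-AMC; AMC fluorescence (ex 360/em 450 nm) change over 60 s gave rate.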
# MARV entry inh: Marburg virus entry inhibition; Marburg virus pseudotyped entry inhibition, cell reporter; control for the full effect not named in the record; about a third of the inactives were read at about 46 µM; Potency, µM (series often up to 37.8 µM), inactives show at the highest dose activity change, negative = inhibition, most hits filed as inhibitors; 300,000 tested, 1.8% active; AID 540276; active = well fitted inhibition curve with a large enough effect; inconclusive = small, poorly fitted or top-dose-only effect, or effect the other way; inactive = flat fitted curve, though single readings scatter; tested in HEK293 cells; about a fifth of its hits are not listed in these tables; note: % is set by controls: 0 for no effect and ±100 for the full control effect; luciferase read-out
# NS1 inh: blocks influenza NS1 protein function; S. cerevisiae slowed by influenza A NS1, growth recovery by OD600; Potency, µM (doses to about 46.1 µM), for inactives: top-dose activity, positive = more growth; 270,000 tested, 0.4% active; note: actives are rising curves; nearly all actives have a fitted effect of over 50% in size
#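 Recovery from NS1-induced slow growth read by OD600 in budding yeast switched to galactose assay medium (pH 6.0, -URA) at 1:100 dilution. Compound 23 nl per well; the matching strain lacking NS1 serves as control.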
# SARS PLpro yeast: inhibitors of SARS-CoV papain-like protease in yeast. Potency, µM (highest dose often 32.9 µM), for the others: top-dose activity, positive = growth rescue. 330,000 tested, 0.19% active. AID 485353. S. cerevisiae expressing SARS-CoV PLpro, growth rescue; control for the full effect not named in the record; note: 0% is about no effect; nearly all actives have a fitted effect of over 55% in size; growth read by luminescence after 48 h
# * hit, by the source's call; ? = inconclusive; · = no result given; & = joins results of further samples; [ ] = remark or other dose. Unless noted, calls come from the whole dose curve; as a rule, active means well fitted rising curve with a large enough effect; inconclusive means small, poorly fitted or top-dose-only effect; inactive means no such curve, though single readings can be large or run the other way. Potency is the fitted concentration of half-maximal effect. No enrichment for hits; any-hit rate near 4.5%.
SMILES,Cruzain inh noDet,2A StopGo,RE007 growth inh,LASV entry inh,Cruzain inh Det,MARV entry inh,NS1 inh,SARS PLpro yeast
COc1ccc(NC(=O)CN(C)C(=O)c2ccc(N3CCCCCC3)c([N+](=O)[O-])c2)cc1,·,-2%,40%,-14%[46.1 µM],·,-19%,·,-1%
CCOC(=O)C1CCN(C(=O)Nc2cccc(OC)c2)CC1,·,20%,-15%,17%,·,-6%[46.1 µM],1%,3%
COc1ccc(NC(=O)CC2C(=O)N(c3ccc(OC)cc3)C(=O)N2C(C)C)cc1 (configuration not stated),-2%,21%,5%,-18%,-3.1%,12%,-11%,2%
O=C(Cn1cnc2onc(-c3ccc(Cl)cc3)c2c1=O)Nc1ccc(F)cc1,-3%,-12%,·,15%[46.1 µM],-0.1%,·,·,·
CCCC(=O)c1ccc(OC(=O)c2c(-c3ccccc3Cl)noc2C)cc1,-2%,0%,·,?,-0.4%,·,·,·
CCS(=O)(=O)c1ccc(O)c(NC(=O)COc2ccc(Br)cc2)c1,·,-3%,-8%,-3%,·,3%[46.1 µM],2%,0%
CC(=O)c1ccc(NC(=O)C(C)OC(=O)CCCN=C2NS(=O)(=O)c3ccccc32)cc1 (configuration not stated),·,-12%,22%,-2%[46.1 µM],·,10%,·,-3%
O=C(CN1C(=O)NC(Cc2c[nH]c3ccccc23)C1=O)NCCc1ccccc1 (configuration not stated),·,-19%,3%,?,·,-3%[46.1 µM],0%,3%
O=c1c2ccccc2nc(/C=C/c2ccc(F)cc2)n1-c1ccccn1,·,-20%,5%,5%,·,4%[46.1 µM],4%,-1%
Cc1ccc(CN2CCN(/N=C\C=C\c3ccccc3)CC2)cc1,·,0%,-30%,-4%,·,?,0%,-1%
CCSc1cnn(-c2ccccc2)c(=O)c1Cl,·,28%,-6%,-1%,·,10%,·,·
COc1ccc(NC(=O)N2CCc3c(sc4c3CCCC4)C2c2ccccc2OC)cc1 (configuration not stated),?,-6%,·,-2%[46.1 µM],-2.2%,·,·,·
CN(Cc1ccno1)Cc1cn(Cc2ccccc2)nc1-c1ccc2c(c1)OCO2,·,-4%,-9%,·,·,?,3%,0%
Brc1cccc(OCCn2ccnc2)c1,-10%,-27%,-1%,7%,4.3%,5%[46.1 µM],-5%,-8%
CCCC(c1nnnn1C1CCCCC1)N1CCN(C2CCCC2)CC1 (configuration not stated),-5%,-18%,2%,-1%,3.0%,-25%[46.1 µM],-3%,0%
O=C(N/N=C/c1cc(Cl)cc([N+](=O)[O-])c1O)c1cc(-c2ccccn2)nc2ccccc12,·,5%,-15%,·,·,·,4%,22%
NC(=O)c1cc(Cl)cn(-c2ccccc2)c1=O,-3%,-11%,16%,·,-0.1%,·,6%,-5%
COC(=O)C1CCN(S(=O)(=O)c2cc3c4c(c2)CCN4C(=O)CC3)CC1,·,5%,-5%,-12%[46.1 µM],·,1%,·,-11%
CCc1sc(C(=O)NCc2ccccc2)cc1C,·,36%[activator],15%,-4%,·,11%[46.1 µM],-5%,0%
O=S(=O)(NCc1ccc2c(c1)OCO2)c1cccc(S(=O)(=O)N2CCOCC2)c1,14%,-3%,-10%,0%,1.1%,-9%&-3%,-12%,8%
CN(Cc1ccccc1)S(=O)(=O)c1ccc(Cl)c(C(=O)NCc2ccncc2)c1,·,-13%,5%,-3%[46.1 µM],·,-29%,·,-4%
Cc1cc(C)n(Cc2cccc(C(=O)N/N=C/c3cccnc3)c2)n1,·,25%,0%,·,·,·,16%,1%
O=C(Nc1cccc(-c2nc3ccccc3[nH]2)c1)c1ccccc1F,17%,9%,·,-1%[46.1 µM],-8.7%,·,·,·
O=C(c1ccc(COCC(F)(F)F)o1)N1CCCC1,·,7%,12%,5%[46.1 µM],·,-3%[46.1 µM],4%,0%
CNC(=O)c1oc(-c2ccccc2)nc1C,·,-4%,2%,8%,·,10%,1%,-1%
Cc1ccc(S(=O)(=O)Nc2ccc(-n3cnnn3)cc2)cc1,·,19%,24%,-1%[46.1 µM],·,-18%[46.1 µM],15%,0%
O=C(c1cc(Cl)ccc1Cl)N1CCN(c2ccccn2)CC1,-10%,?,-20%,-3%,3.6%,?,-24%,-4%
CCCOc1ccc(N2C(=O)CC(SCCc3nc4ccccc4[nH]3)C2=O)cc1 (configuration not stated),·,-36%,-11%,·,·,·,0%,-5%
O=C(Nc1cccnc1)c1cn(-c2ccccc2)nc1-c1cccs1,1%,·,10%,-14%,-6.8%,-16%,-24%,-8%
O=C(c1ccc(CS(=O)c2ccccc2Cl)o1)N1CCN(c2ccccc2)CC1 (configuration not stated),·,?,-4%,·,·,·,-18%,3%
Cc1ccc(-n2nc3ccc(N)cc3n2)c(C)c1,·,-18%,?,·,·,·,?,1%
Cc1ccc(CNC(=O)CSc2nc3ccccc3c3nc(C)nn23)cc1,?,·,·,·,1.5%,0%,6%,-7%
CCC(C(=O)NCc1cccs1)n1nc(C)n2c(cc3occc32)c1=O (configuration not stated),·,0%,2%,21%[46.1 µM],·,-17%[46.1 µM],24%,·
CCOc1cccc(C(=O)Nc2ccc(N3CCCC3)cc2)c1,·,4%,11%,-4%[46.1 µM],·,?,-2%,1%
CCOC(=O)c1c(NC(=O)Cn2nc(C(=O)O)c3ccccc3c2=O)sc(CC)c1C,·,-14%,4%,24%[46.1 µM],·,?,-10%,-9%
Cc1ccc(N2C(=O)c3ccc(N)cc3C2=O)cc1,-22%,-8%,-11%,4%,5.5%,?,-11%,-5%
CC(=O)Nc1ccc(C2(O)COc3ccccc3O2)cc1 (configuration not stated),0%,29%,20%,-15%,2.8%,3%,1%,6%
COc1cc(-c2nc(C(=O)NC3CCN(Cc4ccccc4)CC3)cc3c2[nH]c2ccccc23)cc(OC)c1OC,·,?,-4%,·,·,·,-5%,-1%
COc1ccc(C(=O)COC(=O)CCNS(=O)(=O)c2ccccc2)c(OC)c1,·,-5%,-6%,7%,·,?,·,0%
CNc1nnc(-c2ccc(OC)cc2)s1,·,2%,7%,·,·,·,-8%,-2%
O=C(COC(=O)c1cccnc1Cl)NCc1cccs1,·,18%,4%,4%[46.1 µM],·,-1%[46.1 µM],·,3%
CCc1ccc2c(c1)c(=O)c(S(=O)(=O)c1ccc(Cl)cc1)cn2CC,-14%,24%,·,-27%[46.1 µM],-4.6%,-3%[46.1 µM],·,·
COc1ccccc1N1CCN(c2ncnc3nc[nH]c23)CC1,-9%,-1%,-3%,1%,0.5%,0%,-1%,?
NC(=O)C1(N2CCCCC2)CCN(CC(=O)Nc2cc(Cl)ccc2Cl)CC1,-8%,?,8%,-3%,-7.4%,-4%&-1%,-5%,3%
Cc1cc(C)c2c(=O)cc(C(=O)Nc3sc4c(c3C(=O)NCc3ccco3)CCCC4)oc2c1,2%,?,·,?,-2.5%,-12%[46.1 µM],·,·
CC(Nc1oc(-c2ccco2)nc1C#N)c1ccccc1 (configuration not stated),0%,0%,3%,-9%,-4.1%,?,-35%,-40%
CCN(CC(=O)NCc1cccs1)C(=O)/C=C/c1cccc(Cl)c1Cl,·,22%,7%,10%,·,?,·,-1%
COc1ccc(/C=C/C(=O)NCc2ccccn2)cc1,-11%,33%[activator],8%,17%,-3.8%,?,14%,4%
O=C(CN1C2=NCCN2c2ccccc21)C12CC3CC(CC(C3)C1)C2,2%,?,-19%,?,-0.3%,?,-7%,-6%
COc1ccc(NC(=O)CSc2nnc(-c3ccccn3)n2Cc2ccco2)cc1OC,-3%,-1%,-8%[3.69 µM],-8%,4.9%,-7%,-8%,-2%
CC(=O)N(C)Cc1ccc(C(=O)CSc2nnc(C3CC3)n2C2CC2)cc1,·,-6%,7%,-19%,·,?,·,1%
CCN1CCc2nc(NC(=O)Cc3ccc4c(c3)OCCO4)sc2C1,-24%,16%,-14%,-6%,-6.6%,?,0%,2%
C=CCn1c(-c2ccc(C)cc2)nc2ccccc21,-2%,19%,-6%,22%,-0.8%,-3%,-156%,-10%
COc1ccccc1CCNC(=O)c1ccc(NC(=O)CC2SC(N3CCCC3)=NC2=O)cc1 (configuration not stated),·,-17%,-14%,-5%[46.1 µM],·,30%,·,0%
C/C(=N/NC(=O)c1ccoc1C)c1ccc(N2CCOCC2)cc1,-14%,63%[activator],-23%,?,-9.9%,-1%,5%,-3%
CN(C)C(=O)c1ccc(Nc2nnc(-c3ccc(O)cc3)c3ccccc23)cc1,·,-18%,1%,-12%[46.1 µM],·,11%[46.1 µM],0%,-1%
O=C(NC(Cc1ccccc1)C(=O)O)c1ccc(S(=O)(=O)N2CCCC2)cc1 (configuration not stated),-12%,-7%,10%,8%,-1.8%,9%,13%,0%
O=C(NCc1cccnc1)Nc1ccc(Br)cc1,·,12%,3%,·,·,·,-10%,0%
Cc1cc(C)n(CC(O)COc2cccc(OCC(O)Cn3nc(C)cc3C)c2)n1 (configuration not stated),?,?,0%,-11%,3.1%,18%,5%,?
CCOC(=O)c1c(O)c(Cl)c(C)[nH]c1=O,·,4%,-5%,18%,·,17%[46.1 µM],·,-3%

# Going on with the list:
SMILES,Cruzain inh noDet,2A StopGo,RE007 growth inh,LASV entry inh,Cruzain inh Det,MARV entry inh,NS1 inh,SARS PLpro yeast
CC(Sc1ccc(Cl)cc1)C(=O)Nc1ccccc1-c1ccccc1 (configuration not stated),-22%,-13%,-2%,12%,1.3%,?,8%,-23%
CCCCn1c(SCC(=O)NCCOC)nc2ccc(N3CCOCC3)cc2c1=O,-4%,10%,4%,0%,-7.5%,10%,13%,4%
COc1cccc(C2CC(C(F)(F)F)n3ncc(C(=O)O)c3N2)c1 (configuration not stated),?,12%,12%,22%,4.2%,6%&6%,18%,-7%
CCOCCCNC(=O)c1cc2c(=O)[nH]c3ccccc3c2s1,·,34%[activator],1%,0%[46.1 µM],·,2%[46.1 µM],-5%,-1%
O=C(NNc1cccc(Cl)n1)Nc1cccc(C(F)(F)F)c1,4%,14%,4%,5%,-3.2%,7%[46.1 µM],4%,4%
CC12COC3(C(=O)Nc4ccc5ccccc5c4)CC1CCC32C (configuration not stated),·,51%[activator],-15%,?,·,?,·,-29%
COCCCNS(=O)(=O)c1ccc2c(c1)OCCO2,-15%,35%[activator],3%,-4%,2.3%,27%,-4%,-6%
